ugtP null kill: kills S. aureus RN4220 lacking UgtP; S. aureus RN4220 ugtP deletion, OD600 growth, 16 h; some inactives read as strong as hits; growth inhibition, % (concentration not given with the values); hit rate 0.54% among 330,000; AID 1259309;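 active means z-score under -3 and OD600 up to 0.15 on both plates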;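 further: plate controls were untreated wells for no effect and antibiotic for full effect; wells of about 80 µL received 100 nL stock; the first replicate is given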
Sa RN4220 lethal: kills Staphylococcus aureus RN4220; S. aureus RN4220 growth, OD600, 16 h; inhibition, % (no concentration beside the values); hit rate 0.33% among 330,000;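 active means z-score of -3 or lower and OD600 up to 0.18 on both plates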;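 further: plate controls were untreated cells for no effect and reference antibiotic for full effect; stock transfer was 100 nL into about 80 µL; one replicate is shown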
Autofluor counter: compound fluorescence in toxin protease inhibitor counterscreen; compound autofluorescence counterscreen, microsphere flow cytometry; stronger effect = higher value; fluorescence intensity (concentration not given with the values); hit rate 3.1% among 360,000; AID 624483;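 active means at least 3 SD above the mean of all compounds, about 16000 in these data; inconclusive means too few beads counted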;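 further: 100 nL of 1 mM stock went into each well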
BJeLR viability: kills HRASV12-expressing BJeLR cells; BJeLR (HRASV12) viability, CellTiter-Glo ATP luminescence, 48 h; reference of the scale not given here; inhibition, % (no concentration beside the values); hit rate 0.17% among 300,000;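 active means replicate mean above 50%; inconclusive means above 50% but judged a plate artefact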;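 further: 50 nL library stock added to about 25 µL; numbers are from one replicate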
Mtb hypoxia inh: reduces hypoxia-regulated biosensor signal in M. tuberculosis; fluorescence inhibition, % (test concentration not listed); AID 1159583; hit rate 0.1% among 300,000; M. tuberculosis hypoxia-regulated fluorescent reporter, fluorescence;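 active means 35 to 45% if threefold the growth effect, above 45% if 1.5-fold the growth effect; inactive means the rest, general growth blockers included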;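 further: wells of about 50 µL received 100 nL stock; 0% = vehicle wells and 100% = reference inhibitor wells; whole bacteria with a GFP reporter of the hypoxia response; strong numbers were not always called active; many hits fall short of the cut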
PrP UTR inh: suppresses PrP 5' UTR mRNA reporter expression | cell-based PrP 5' UTR mRNA reporter, plate reader | hit rate 0.35% among 340,000 | inhibition, % (concentration not given with the values) | AID 488862;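 active means every replicate at 50% or more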;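 further: 0 = median of the neutral control wells; tested in H4 reporter cells; numbers are from one replicate; inactives centre near -14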
Mtb hypoxia inh growth: second read-out of Mtb hypoxia inh, no call of its own (marks repeat the call); growth inhibition, %; measured here: M. tuberculosis growth (absorbance);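 0% = vehicle and 100% = reference antibiotic; read after six days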
The depositor's hits bear a star; ? = inconclusive; . = not tested or not shown.

SMILES	ugtP null kill	Sa RN4220 lethal	Autofluor counter	BJeLR viability	Mtb hypoxia inh	Mtb hypoxia inh growth	PrP UTR inh
CC#CCC(CC#CC)c1nc2ccccc2c(=O)n1N	7	5.9	2140	4	13	9	-9
CNC(=O)[C@@]1(Cc2ccccc2)C=CC(C)N1C(C)=O (stereo not given in full)	9	3.3	.	.	2	10	.
Cc1ccc(-c2cn(-c3ccccc3)c(=S)[nH]2)cc1C	10	-0.2	3497	-15	4	-4	-12
O=S(=O)(c1ccccc1)N1CCN(C(=S)Nc2ccccc2)CC1	17	4.7	5799	.	3	-1	-11
Oc1c(Br)cccc1C=NNc1c(F)c(F)c(F)c(F)c1F	-21	-15	.	.	4	7	.
Nc1ccccc1C(=O)OC1CSC1	5	1.6	7601	0	1	-2	-10
CCCCNC(=O)Nc1nc(SCC(=O)OCC)n[nH]1	5	1.9	2498	-7	10	6	-31
CCN(c1ccc(C(=O)CSc2nnc(C3CC3)n2C2CC2)cc1)S(C)(=O)=O	1	6.7	8716	.	3	8	-24
CCOC(=O)C1=C(C)NC(C)=C(C(=O)OCC)C1C(=O)O	0	9.0	20924*	.	5	14	-17
CCOC(=O)[C@@H]1[C@H]2COc3cc(OC)ccc3[C@H]2N2C(=O)N(c3ccc(F)cc3)C(=O)[C@]12C	.	.	4193	2	.	.	-14
Cc1nc(SCC(=O)Nc2nnc(C(C)C)s2)n[nH]1	3	4.3	6276	-11	-2	-4	0
O=C(CSC(=S)N1CCCCC1)N1N=CCC1c1ccccc1 (stereo not given)	8	2.4	5515	3	2	10	-24
O=C(Nc1ccccc1F)C1CCCN(S(=O)(=O)c2cccc3cccnc23)C1 (stereo not given)	3	2.3	4385	4	.	.	4
NC(=S)NN=C1CC(n2nnnc2-c2ccccc2Cl)C2COC1O2 (stereo not given)	7	1.7	.	.	-1	8	.
O=C1/C(=C/c2ccc([N+](=O)[O-])cc2)Oc2cc(O)ccc21	-1	5.3	3508	1	17	8	-15
CCCC(=O)N1CCC(CCC(=O)NC2CC2)CC1	5	3.7	5819	6	8	-2	-2
C=CCn1cccc(C(=O)Nc2ccc(OC)cc2OC)c1=O	0	1.8	4958	0	7	8	-14
COc1ccc(C(=O)Oc2cc(C(=S)N3CCOCC3)ccc2OC)cc1	3	-4.1	6073	1	-11	0	-10
Cc1cc(C)nc(SCC(=O)c2cc3ccccc3oc2=O)n1	-8	2.2	4698	6	.	.	-23
CC(C)(C)C(=O)COC(=O)c1cc(S(=O)(=O)N2CCCCC2)ccc1N1CCOCC1	5	-1.3	4747	-1	3	9	-18
CSc1ccc(NC(=O)CSc2nc3[nH]c(=O)cc(O)c3s2)cc1	-1	7.6	4533	.	-10	-7	-6
CC(C)[C@H]1C(=O)Nc2ccccc2N1C(=O)N[C@@H](Cc1ccccc1)C(=O)N[C@@H](Cc1ccccc1)C(=O)O	-13	4.7	5068	-4	.	.	-13
CCCNC(=O)Cn1cnc2sc(C(=O)Nc3ccc4c(c3)OCO4)c(C)c2c1=O	-1	2.8	11061	14	1	-2	-12
FC(F)(F)c1nc(N2CCCC2)ncc1-c1nnnn1-c1ccc(Cl)cc1	-4	0.1	4197	5	5	7	-6
CCN(Cc1ccccc1)C(=O)COC(=O)c1cc(S(=O)(=O)Nc2ccccc2OC)ccc1O	5	-2.1	6205	.	-13	-6	-5
Cc1cc(S(=O)(=O)N2CCOCC2)ccc1F	2	1.7	3955	13	9	12	-21
CC(C)COC(=O)N1CCCC1C(=O)O (stereo not given)	-3	-0.1	4485	-6	-2	0	4
CC(=O)/C(=N/Nc1ccc([N+](=O)[O-])cc1)N1CCCc2ccccc21	.	.	3772	-4	.	.	-65
CN1C(=O)CC(=O)N(C)c2cc(S(=O)(=O)N(C)Cc3ccccc3)ccc21	34	27	6195	-4	5	1	0
O=C(O)Cc1sc(NCc2ccco2)nc1-c1ccccc1	-1	2.5	5988	8	14	7	2

One compound at a time (already shown):
Entry for FC(F)(F)c1nc(N2CCCC2)ncc1-c1nnnn1-c1ccc(Cl)cc1 = ugtP null kill: -4; Sa RN4220 lethal: 0.1; Autofluor counter: 4197; BJeLR viability: 5; Mtb hypoxia inh: 5; Mtb hypoxia inh growth: 7; PrP UTR inh: -6
Entry for Cc1nc(SCC(=O)Nc2nnc(C(C)C)s2)n[nH]1 = ugtP null kill: 3; Sa RN4220 lethal: 4.3; Autofluor counter: 6276; BJeLR viability: -11; Mtb hypoxia inh: -2; Mtb hypoxia inh growth: -4; PrP UTR inh: 0
Entry for CC(C)[C@H]1C(=O)Nc2ccccc2N1C(=O)N[C@@H](Cc1ccccc1)C(=O)N[C@@H](Cc1ccccc1)C(=O)O = ugtP null kill: -13; Sa RN4220 lethal: 4.7; Autofluor counter: 5068; BJeLR viability: -4; Mtb hypoxia inh: .; Mtb hypoxia inh growth: .; PrP UTR inh: -13

The list goes on:
SMILES	ugtP null kill	Sa RN4220 lethal	Autofluor counter	BJeLR viability	Mtb hypoxia inh	Mtb hypoxia inh growth	PrP UTR inh
O=C(O)C1CC=C(Cl)CC1C(=O)NCC1OCCc2ccccc21 (stereo not given)	-7	-14	2900	10	16	11	-16
COCCn1c(Sc2ccccc2)nc2c1c(=O)[nH]c(=O)n2C	-4	1.8	9248	-14	0	6	-23
O=C(CSc1nc2ncccc2[nH]1)Nc1ccc2c(c1)OCO2	1	0.2	3942	12	8	11	.
CCOC(=O)c1oc2ccccc2c1CN1CCN(C(=O)c2ccccc2)CC1	-3	-3.5	6507	-1	1	12	-5
O=C(NCC1CCCO1)C(c1ccco1)N(Cc1ccc(F)cc1)C(=O)CN1C(=O)c2ccccc2S1(=O)=O (stereo not given)	3	-5.2	5136	3	-9	8	-6
O=C(COc1ccc2ccc(=O)oc2c1)Nc1cc([N+](=O)[O-])ccc1F	1	-0.2	7378	-7	3	4	-5
CC(Oc1cc(F)ccc1[N+](=O)[O-])C(=O)N(C)CC(=O)Nc1ccccc1C(F)(F)F (stereo not given)	4	8.1	3194	24	14	-2	-21
Cc1cccc(OCC(=O)NS(=O)(=O)c2ccc(Br)cc2)c1	7	6.5	4315	-1	4	2	24
CC(=O)c1c(C)[nH]c(C(=O)CSc2nnc(CN3CCCCCC3=O)n2-c2ccccn2)c1C	5	2.3	7917	-8	3	5	-18
S=c1[nH]nc(-c2ccc3ccccc3n2)n1-c1ccc(Cl)cc1	-4	-2.2	2529	1	-12	8	-10
COCCN1CCN(C(=O)c2ccc3nc(Cc4ccccc4F)oc3c2)CC1	4	2.4	4825	8	-4	-8	-9
CC(C(=O)Nc1ccc(F)c(F)c1F)N(C)CCOc1ccccc1 (stereo not given)	12	0.7	5609	-5	19	6	-7
COc1ccc(CNC(=O)c2ccccc2SC)cc1	-1	-2.6	4871	-2	.	.	-17
OC(CN1CCCCC1)CN1CCCCC1	3	4.8	3177	0	1	9	-11
Cc1ccccc1CNc1ccc(C(CC(N)=O)NC(=O)c2ccccc2)cc1[N+](=O)[O-] (stereo not given)	.	.	3449	7	.	.	-13
CCCC(=O)Nc1ccc(Cl)c(NC(=S)NC(=O)C(C)C)c1	-5	0.9	2166	1	2	5	-12
COc1ccccc1NC(=O)CN1C(=O)COc2ccc(S(=O)(=O)N3CCCCCC3)cc21	1	2.3	5567	1	11	13	-15
O=C(c1ccc(Cl)c(S(=O)(=O)N2CCCCC2)c1)N1CCCCCC1	5	0.9	5929	1	4	2	-40
Cc1ccc(S(=O)(=O)NC(=O)NC(C)(C)C)cc1	-6	4.6	4192	-7	-2	-3	-11
COc1ccc(/C=N/NC(=O)c2ccco2)cc1Cn1nc(C)cc1C	.	.	4842	-3	.	.	-27
Cc1cccc(C)c1NC(=O)CNC(=O)C(C)N1CCCCC1 (stereo not given)	-3	0.0	6217	.	4	4	-1
CC(C)(C)NC(=O)CN(C(=O)CCC(=O)Nc1nccs1)c1ccc2c(c1)OCCO2	5	0.8	5626	-8	14	2	-14
CC(C)C(OC(=O)c1cccs1)C(=O)NCc1ccccc1 (stereo not given)	3	-1.1	3499	-1	0	4	-15
COc1ccc(S(=O)(=O)N(C)c2ccc(C(=O)NCc3ccccn3)cc2)cc1OC	7	1.9	6648	5	-1	-1	-14
NS(=O)(=O)c1ccc(CCNC(=O)COC(=O)/C=C/c2ccc(Cl)cc2)cc1	17	2.3	5317	-1	1	2	-28
Clc1cccc(CSc2nnc([C@@H]3CCCN3)o2)c1	6	8.8	3609	-5	2	3	-8
COc1ccc(OC)c(N/C(=N/c2nc(C)cc(C)n2)NC(C)=O)c1	.	.	?	-1	.	.	3
O=[N+]([O-])c1ccc2[nH]c(=S)[nH]c2c1	-2	3.0	3726	.	3	18	11
COc1ccc(/C=N/N2CCOCC2)cc1OCc1ccccc1	.	.	4451	-3	.	.	-12
COC(=O)c1cc(CSc2nnc(-c3ccccc3)c(-c3ccccc3)n2)oc1C	46	-4.2	3003	2	-3	-4	-18
Cc1ccc(C2C(C#N)=C(N)OC3=C2C(=O)CCC3)s1 (stereo not given)	-3	7.6	3823	10	9	6	-28
C/C(=N/NC(=O)c1ccncc1)c1ccc2c(c1)OCO2	.	.	3753	18	.	.	-20
CCOC(=O)N1CCC(N2Cc3cccc(C(=O)Nc4ccc(OCC)cc4)c3C2=O)CC1	6	10	5584	8	2	0	-4
O=C(c1ccc(CNS(=O)(=O)c2cccc(Cl)c2)cc1)N1CCCCC1	2	2.5	6652	4	5	2	-2
S=c1[nH]nc(-c2cccnc2)n1/N=C/C(Cl)=C\c1ccccc1	.	.	2452	9	.	.	-125
COc1cc(OC)c(NC(C)C(=O)NCc2ccccc2)cc1Cl (stereo not given)	-6	3.1	4598	1	6	13	-14
Cc1ccccc1C(=O)Nc1ccc(-c2nnc(SC(C)C(=O)O)n2C)cc1 (stereo not given)	2	4.3	4190	4	3	-4	-8
Cc1c(Cl)cccc1NC(=O)CN1CCC(C(O)(c2ccccc2)c2ccccc2)CC1	-2	-8.7	21085*	1	6	1	-11
COc1cccc(Oc2ccc(C(F)(F)F)cc2NC(=O)CN2C(=O)NC3(CCCC3)C2=O)c1	1	4.2	7978	.	10	6	-32
CC(C)(C)c1nc2ccccc2[nH]1	-1	2.6	?	-6	.	.	-26
CC[C@]12c3[nH]c4ccccc4c3CCN1C(=O)C(CC(=O)NCCCn1ccnc1)C[C@@H]2C(=O)N1CCN(C(=O)C2CC2)CC1 (stereo not given in full)	-5	-4.1	3274	.	-11	1	-15
CCCCCCCCCCCCOC1OC(CO)C(O)C(O)C1NC(C)=O (stereo not given)	10	0.9	11201	4	14	7	-15
CCOC(=O)c1sc(N)c(C#N)c1COC(=O)C1=COCCO1	4	3.6	4149	.	13	4	-15
CCCS(=O)(=O)N1CCN(Cc2ccncc2)CC1	7	-0.1	8677	-4	11	10	-21
Cc1cc(NC(=O)CSc2nc3cc(Cl)ccc3o2)no1	1	3.1	4328	6	6	3	-17
Cn1c(CC(=O)NCCO)c(Sc2ccccc2)c2ccccc21	3	6.1	9582	4	7	11	-12
COc1ccc(/C=N/NC(=O)CNc2ccc(Br)cc2)c(C(=O)O)c1OC	.	.	2036	-5	.	.	-14
CCn1c(SCC(=O)NN=Cc2ccccc2OCC(=O)O)nnc1-c1ccc(OC)cc1	-1	1.5	.	.	0	0	.
Cc1ccc(S(=O)(=O)NC(C(=O)N2CCOCCOCCOCCOCC2)C(C)C)cc1 (stereo not given)	5	1.6	3839	-1	-11	-3	-8
Cc1cccc(NS(=O)(=O)c2cc(C(=O)NCc3ccccn3)ccc2C)c1	9	-0.8	4115	-5	8	7	-7

Next section
SMILES	ugtP null kill	Sa RN4220 lethal	Autofluor counter	BJeLR viability	Mtb hypoxia inh	Mtb hypoxia inh growth	PrP UTR inh
O=C(C1CCCCC1)N1CCC(n2nnc3ccccc32)CC1	1	-0.8	3572	3	8	12	-3
COc1ccccc1-c1nnc(SCC(=O)N2CCOCC2)o1	-3	0.8	5954	-12	.	.	-16
CCOc1ccc(C(CC(=O)O)NC(=O)C23CC4CC(CC(C4)C2)C3)cc1OC (stereo not given)	-1	-2.3	4253	8	-8	10	-30
CCCN(CC#CCO)CCC	1	-4.4	5166	-4	.	.	-19
CCc1ccc(NC(=O)[C@H](C)NC(=O)C2CCN(C(=O)[C@@H](N)CC(C)C)CC2)cc1	2	-1.1	3750	-6	-3	-2	-4
COc1ccccc1CN1CCNC(=O)C1CC(=O)NCCCn1cccn1 (stereo not given)	6	3.8	2030	2	4	-8	-28
